# Cruzain inh noDet: cruzain (T. cruzi) inhibition without detergent | 200,000 tested, 2.3% active | AID 1476 | purified cruzain, Z-FR-AMC fluorescence, no detergent | Potency, µM, inactives show max response, negative = inhibition, usual class: inhibitors;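 further: plate controls were enzyme without inhibitor for no effect and buffer without enzyme for full effect; nearly all actives have a fitted effect of over 40% in size; top concentration of the series not given in the record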
# Target sequence (P25779 123-467 limits assumed): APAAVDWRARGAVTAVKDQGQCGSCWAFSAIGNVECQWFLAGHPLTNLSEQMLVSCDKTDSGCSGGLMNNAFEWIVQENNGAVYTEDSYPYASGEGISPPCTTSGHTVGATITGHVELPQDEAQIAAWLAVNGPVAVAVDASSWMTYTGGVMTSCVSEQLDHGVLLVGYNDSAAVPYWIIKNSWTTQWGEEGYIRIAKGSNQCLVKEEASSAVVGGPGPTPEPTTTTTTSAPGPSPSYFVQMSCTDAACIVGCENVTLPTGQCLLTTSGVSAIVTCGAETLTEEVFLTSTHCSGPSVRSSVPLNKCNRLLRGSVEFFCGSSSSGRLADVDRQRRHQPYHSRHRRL
#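 Purified cruzain at 1.5 nM, pre-incubated 15 min with compound at room temperature in 100 mM sodium acetate pH 5.5, 5 mM DTT, 0.00005% Triton X-100. Reaction started with 2 uM Z-FR-AMC; AMC fluorescence increase over 60 s gives rate.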
# Marburg entry inh: Marburg virus entry inhibition; Marburg virus pseudotyped entry inhibition, cell reporter; control for the full effect not named in the record; about a third of the inactives were read at about 46 µM; Potency, µM (series often up to 37.8 µM), without a hit: at the top dose activity change, negative = inhibition, hits mostly inhibitors; 300,000 tested, 1.8% active; AID 540276; active = well fitted inhibition curve with a large enough effect; inconclusive = small, poorly fitted or top-dose-only effect, or effect the other way; inactive = flat fitted curve, though single readings scatter; tested in HEK293 cells; about a fifth of its hits are not listed in these tables; further: on the % scale 0 is the no-effect control and ±100 the full control effect; luciferase read-out
# RE007 growth inh: less growth of the S. pombe RE007 Vpr strain | S. pombe RE007 Vpr strain, BacTiter-Glo ATP luminescence, 24 h; control for the full effect not named in the record | Potency, µM (top dose mostly 92.2 µM), for the others: at the highest dose activity change, negative = less growth | 360,000 tested, 0.21% active; active = well fitted falling curve with a large enough effect; inconclusive = small, poorly fitted or top-dose-only effect; inactive = no such curve, though single readings can be large or run the other way;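 further: on the % scale 0 is the no-effect control and ±100 the full control effect; nearly all actives have a fitted effect of over 50% in size; the assay follows cell death caused by Vpr and the record does not say whether a fall means rescue or toxicity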
#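 Fission yeast strain RE007, carrying one chromosomally integrated HIV-1 vpr copy, was seeded at OD 0.01 in PMG+AL medium with 23 nL pinned compound. After 24 h at 30 °C and 99% humidity, viability was read by BacTiter-Glo luminescence.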
# 2A StopGo: lowers the luciferase signal of an FMDV 2A StopGo reporter. Potency, µM (doses to about 57.9 µM), for inactives: top-dose signal change, negative = less light. 410,000 tested, 1.2% active. human cells with a luciferase reporter of 2A StopGo recoding; control for the full effect not named in the record; active = well fitted falling curve with a large enough effect; inconclusive = small, poorly fitted or top-dose-only effect; inactive = no such curve, though single readings can be large or run the other way; tested in HEK293T cells; further: on the % scale 0 is the no-effect control and ±100 the full control effect; nearly all actives have a fitted effect of over 45% in size; luciferase light after 4 h
# Cruzain Triton: blocks cruzain activity in presence of Triton detergent; 200,000 tested, 0.43% active; Potency, µM, for inactives: max response, negative = inhibition, actives largely listed as inhibitors; purified cruzain, Z-FR-AMC fluorescence, 0.01% Triton; P25779;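 further: plate controls were neutral wells for no effect and buffer without enzyme for full effect; nearly all actives have a fitted effect of over 40% in size; top concentration of the series not given in the record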
#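 Purified cruzain (1.5 nM final) was preincubated with compounds for 15 min at room temperature in 100 mM sodium acetate pH 5.5, 5 mM DTT, 0.01% Triton X-100. Reaction started with 2 uM Z-FR-AMC; AMC fluorescence change over 60 s gave activity.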
# LASV entry inh: Lassa virus entry inhibition. 300,000 tested, 1.2% active. Potency, µM (highest dose often 37.9 µM), inactives show at the top dose activity change, negative = inhibition, most hits filed as inhibitors. Lassa virus pseudotype entry inhibition, cell reporter; control for the full effect not named in the record. AID 540256; active means well fitted inhibition curve with a large enough effect; inconclusive means small, poorly fitted or top-dose-only effect, or effect the other way; inactive means flat fitted curve, though single readings scatter; tested in HEK293 cells; further: on the % scale 0 is the no-effect control and ±100 the full control effect; nearly all actives have a fitted effect of over 50% in size; luciferase read-out
# NS1 inh: influenza NS1 inhibition; S. cerevisiae slowed by influenza A NS1, growth recovery by OD600; Potency, µM (titrated, usually from 46.1 µM), inactives show at the highest dose activity, positive = more growth; 270,000 tested, 0.4% active; active means well fitted rising curve with a large enough effect; inconclusive means small, poorly fitted or top-dose-only effect; inactive means no such curve, though single readings can be large or run the other way; further: nearly all actives have a fitted effect of over 50% in size
#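 Compounds were scored for reversing the slow growth caused by influenza A NS1 in S. cerevisiae, measured by optical density at 600 nm. Assay medium contained 2% galactose at pH 6.0; NS1-free yeast of the same strain were the positive control.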
# SARS PLpro yeast: inhibitors of SARS-CoV papain-like protease in yeast | S. cerevisiae expressing SARS-CoV PLpro, growth rescue; control for the full effect not named in the record | Potency, µM (doses to about 32.9 µM), inactives show at the top dose activity, positive = growth rescue | 330,000 tested, 0.19% active; active means well fitted rising curve with a large enough effect; inconclusive means small, poorly fitted or top-dose-only effect; inactive means no such curve, though single readings can be large or run the other way; further: 0% is about no effect; nearly all actives have a fitted effect of over 55% in size; growth read by luminescence after 48 h
# * hit, by the source's call; ? = inconclusive; · = not tested or not shown; & = joins results of further samples; [ ] = dose if it differs, or a comment. Unless noted, the call rests on the fitted dose curve; in most records, active means well fitted curve in the direction sought with a large enough effect; inconclusive means small, poorly fitted or top-dose-only effect, or another doubt; inactive means no such curve, though single readings can be large; an effect the other way counts as inactive or inconclusive. Potency means the concentration at half of the fitted maximal effect.
Molecule	Cruzain inh noDet	Marburg entry inh	RE007 growth inh	2A StopGo	Cruzain Triton	LASV entry inh	NS1 inh	SARS PLpro yeast
CCc1ccc2c(c1)/C(=N/OC)C(=O)N2	-1%	4%	12%	2%	-0.4%	10%[46.1 µM]	5%	17%
COc1ccc(C(=O)Nc2nnc(S(=O)(=O)N3CCOCC3)s2)cc1	-13%	·	-8%	3%&0%	-0.4%	18%[46.1 µM]	-5%	1%
Cc1ccc(/C=c2\sc3nc(-c4ccccc4Br)nn3c2=O)o1	-5%	3%	7%	-19%	-6.5%	4%	-34%	-2%
NS(=O)(=O)c1ccc(CCNC(=O)c2ccc(C(=O)c3ccccc3)cc2)cc1	·	1%[46.1 µM]	0%	0%	·	5%	-2%	0%
O=C(C1CCC(CNS(=O)(=O)c2ccccc2)CC1)N1CCCCC1 (stereo not given)	·	-29%[46.1 µM]	8%	-16%	·	?	-8%	0%
Cc1cc(C)c(/C=C(\C#N)C(N)=S)c(C)c1	-18%	?	3%	-8%	-9.7%	0%	?	17%
Cc1ccc(CN2C(=O)N/C(=C/c3cc(C)n(-c4ccccn4)c3C)C2=O)cc1	-16%	-24%	-1%	21%	-9.1%	?	23%	26%
Cc1cc(OCC(=O)c2ccc(F)cc2)ccc1N1C(=O)CCC1=O	2%	?	10%	13%	-2.7%	-13%	2%	2%
COc1ccc(NC(=O)Cn2c(=O)n(-c3ccccc3)c(=O)c3ccc(C(=O)NCc4ccc5c(c4)OCO5)cc32)cc1	?	-9%[46.1 µM]	·	6%	-1.4%	?	·	·
COc1cccc(NS(=O)(=O)c2ccc3c(c2)NC(=O)C(C)C(=O)N3)c1 (stereo not given)	·	·	5%	-17%	·	·	-3%	-4%
COc1ccccc1CN1CCSCC1	-10%	9%	8%	·	6.6%	-5%	4%	4%
Cc1ccccc1NC(=O)Cc1cn(C)c2ccccc12	-10%	16%	11%	30%	1.0%	23%	-16%	-3%
C/C(=N\NC(=O)c1ccccc1)c1c(C)[nH]n(-c2ccccc2)c1=O	·	?	-13%	-3%	·	-15%[46.1 µM]	-33%	6.3µM*
Cc1ccc(NC(=O)C2C(c3ccccc3)C2(Cl)Cl)c(C)c1 (stereo not given)	1%	?	8%	0%	-3.4%	-22%	-46%	-27%
O=C(Nc1ccccc1OC(=O)N1CCCCC1)N1CCCCC1	-1%	-5%	-3%	-10%	4.3%	8%	9%	1%
O=C(CN1C(=O)CCSc2ccccc21)N1CCC2(CC1)OCCO2	11%	6%	20%	13%	-0.7%	21%	-7%	1%
O=C(Nc1cnn(Cc2ccc(F)cc2)c1)c1cc(-c2ccco2)on1	·	?	1%	-3%	·	1%	·	-5%
COc1ccccc1-c1ccc2nnc(SCC(=O)N3CCCC3)n2n1	·	-1%[46.1 µM]	8%	-21%	·	16%	·	-1%
CC1(C)CC(=O)C=C(Nc2ccc(C(=O)O)c(O)c2)C1	·	8%[46.1 µM]	9%	2%	·	-2%[46.1 µM]	6%	0%
C=CCNC(=O)C(C#N)c1nc2ccccc2nc1N1CCCCCC1 (stereo not given)	?	9%	15%	28%	-22%	5%	13%	4%
O=C(O)/C=C\C(=O)Nc1cccc(C(=O)Nc2cccc(O)c2)c1	·	?	-17%	2%	·	1%	-1%	0%
CC(C)(/C=N/O)/[N+]([O-])=C/c1ccccc1C(F)(F)F	-8%	?	-14%	0%	3.4%	17%	6%	4%
COc1ccc(C(=O)/C=C/C(=O)N(CC(=O)NC2CCCCC2)Cc2ccc(F)cc2)c(O)c1	·	?	-4%	7.1µM*	·	?	3%	1%
COCCn1c(SCC(=O)Nc2cc(C)on2)nnc1C(C)C	·	13%[46.1 µM]	5%	5%	·	4%	-10%	-3%
CN(CC(=O)Nc1ccc(N2CCOCC2)cc1)C(=O)c1ccc(O)c(Cl)c1	·	?	-3%	-4%	·	-12%	-6%	-3%
CC(Oc1ccc(S(=O)(=O)N2CCCC2)cc1[N+](=O)[O-])C(=O)N(C)c1ccccc1 (stereo not given)	·	7%	17%	11%	·	-20%	·	0%
Cc1ccc(CNC(=O)c2ccc(CS(=O)(=O)c3ccccc3)o2)cc1	·	·	2%	?	·	·	-6%	-1%
CC1(c2ccc(OC(F)F)cc2)NC(=O)N(/N=C/c2c(O)ccc3ccccc23)C1=O (stereo not given)	-18%	-14%	-14%	-22%	-4.7%	-18%	-2%	-33%
CC(=O)Nc1cccc2c1OCCO2	3%	-4%	-5%	12%	1.2%	11%	-10%	5%
CC1(C)N=C(/C=N/O)CN1O	-12%	-12%	-5%	-4%	-2.2%	-1%	7%	0%
NC(=O)c1nn(-c2ccccc2)c(=O)cc1O	-3%	-1%	5%	-15%	6.9%	1%	0%	3%
CC(C)(C)SCCNC(=O)Nc1ccccc1	-6%	?	3%	14%	1.7%	?	-7%	4%
COc1ccc2oc(-c3ccc(C)c(NC(=O)Cc4ccc(Cl)cc4)c3)nc2c1	-6%	-1%[46.1 µM]	·	29%	0.4%	14%[46.1 µM]	·	·
COc1cc(/C=N/NC(=O)c2ccc(-n3cccc3)cc2)ccc1O	12%	?	11%	0%	-12%	?	21%	-4%
O=C(CN(Cc1ccc2c(c1)OCO2)C(=O)CNC(=O)c1ccco1)NC1CCCCC1	1%	?	-8%	-11%	-1.4%	0%	0%	17%
NC(=S)Nc1nc2ccccc2s1	·	?	-29%	43%[activator]	·	23%	·	0%
CCc1nc2ccccc2n1CCCCOc1ccc(Cl)cc1	22%	11%[46.1 µM]	·	?	-11%	-13%[46.1 µM]	·	·
O=C(NCCCN1CCN(CCCNC(=O)c2cccc([N+](=O)[O-])c2)CC1)c1cccc([N+](=O)[O-])c1	-17%	?	3%	-16%	-6.4%	?	-4%	-11%
CC1(C)Cc2c(sc(NC(=O)C(=O)N3CCOCC3)c2C#N)CO1	·	·	-3%	1%	·	·	12%	28%
CCCCCCNc1nc(NCc2ccco2)nc(OCC)n1	-1%	17%[46.1 µM]	15%	-16%	-4.5%	2%	-97%	-21%
N#CC1=C2N=C(N)c3ccccc3N2C2=C(C(=O)CCC2)C1c1ccc(F)cc1 (stereo not given)	·	·	34%	-10%	·	·	2%	1%
O=C(CCc1nc2ccccc2c(=O)[nH]1)Nc1cc(C(F)(F)F)ccc1N1CCOCC1	·	-10%	-20%	-13%	·	-21%	·	-5%
C[C@@H]1CN(CCCn2c3ccccc3c3ccccc32)C[C@H](C)N1	3%	·	·	-18%	-1.5%	·	·	-2%
Cc1cc(NC(=O)COC(=O)C2CCN(S(=O)(=O)c3ccccc3)CC2)c([N+](=O)[O-])cc1C	·	-4%	-15%	6%	·	-2%	1%	?
O=C1CC(c2c[nH]c3ccccc23)C(=O)N1 (stereo not given)	9%	?	12%	-24%	-0.9%	1%	24%	-3%
COc1ccc(CNC(=O)COC(=O)/C=C/c2cccs2)cc1	-5%	?	4%	-17%	-5.0%	2%	-3%	6%
O=C(CSc1n[nH]c(=O)n1C1CC1)N1N=C(c2ccc(Cl)cc2)CC1c1ccco1 (stereo not given)	·	·	-1%	-6%	·	·	-1%	0%
Cc1ccc(NC(=O)C2CCN(c3nc4ccccc4nc3C(F)(F)F)CC2)cc1F	-2%	·	·	?	-0.1%	-18%[46.1 µM]	·	·
CCN=C(NCC)SC1CC(=O)N(c2ccc(OC)cc2)C1=O (stereo not given)	1%	-1%	1%	·	2.1%	3%	1%	8%
O=C(Nc1cccc(Cl)c1)Nc1cc(S(=O)(=O)N2CCOCC2)ccc1N1CCCC1	-4%	?	0%	?	-6.8%	?	-3%	-1%
CCOC(=O)N1CCC(NC(=O)CCS(=O)(=O)c2ccc3c(c2)CCN3C(=O)CC)CC1	-5%	-6%&5%	11%	4%	0.3%	-19%	-3%	3%
O=C(CCC1CCCCC1)Nc1cc(C(F)(F)F)ccc1N1CCOCC1	·	?	5%	-16%	·	-8%	·	-10%
COc1ccc(-c2c(C)nn3c(N4CCN(c5ccccc5)CC4)cc(C)nc23)cc1OC	6%	5%[46.1 µM]	·	-17%	0.6%	0%[46.1 µM]	·	·
Cn1c(-c2ccccc2)cccc1=O	-1%	10%	1%	11%	-7.0%	-1%	7%	4%
CCOc1ccc(Cn2nnc(C(=O)NCc3ccc(OC)cc3)c2N)cc1	1%	2%&2%	8%	-9%	0.5%	-20%	11%	?
COC(=O)c1cc(C(=O)N2CCc3ccccc32)cc([N+](=O)[O-])c1	·	·	-3%	-17%	·	·	28%	-1%
CCS(=O)(=O)Nc1c(C(=O)OC)[nH]c2ccccc12	-3%	-2%	-12%	2%	0.1%	25%	9%	5%
Cn1c(N)c(N=O)c(=O)n(C)c1=S	·	3%[46.1 µM]	13%	-2%	·	7%[46.1 µM]	·	·
O=[N+]([O-])c1cccc(-c2n[nH]c(=S)n2-c2ccc(Br)cc2)c1	·	-1%[46.1 µM]	3%	-19%	·	17%[46.1 µM]	14%	0%
O=C(CCCN1C(=O)CSc2ncccc21)N1CCN(c2cccc(C(F)(F)F)c2)CC1	23%	-15%&-15%	22%	?	-0.4%	-5%	-35%	1%

# Carrying on.
Molecule	Cruzain inh noDet	Marburg entry inh	RE007 growth inh	2A StopGo	Cruzain Triton	LASV entry inh	NS1 inh	SARS PLpro yeast
CCN(c1ccccc1)c1cc2ccccc2c(=O)[nH]1	·	-2%[46.1 µM]	3%	2%	·	2%	-41%	-18%
Cc1ccc(OCCCN2C(=O)C(=O)c3cc(C)ccc32)cc1	·	·	-3%	-4%	·	·	-4%	-1%
COC(=O)c1cc(=O)n(Cc2ccc3c(c2)OCO3)c(=Nc2ccc(F)cc2)s1	?	0%	-11%	13µM*	-4.3%	·	4%	-2%
O=c1c2ccccc2c(C=Nc2ccccc2O)c(O)n1-c1nccs1	·	·	-2%	-25%	·	·	-7%	-2%
Cc1ccc(/C=C/C(=O)NCCCn2ccnc2)cc1	·	9%[46.1 µM]	-1%	36%[activator]	·	17%	-2%	-3%
